Vaccinia mCherry: qHTS for Stage-Specific Inhibitors of Vaccinia Orthopoxvirus: mCherry Reporter Primary qHTS; Vaccinia virus mCherry reporter infection, fluorescence; about a quarter of the inactives have no number; Potency, µM (highest dose often 36.5 µM), for the others: top-dose activity change, negative = inhibition, hits mostly inhibitors; 0.63% of 310,000 active; AID 720579, 2013; active = well fitted inhibition curve with a large enough effect; inconclusive = small, poorly fitted or top-dose-only effect; inactive = no such curve, though single readings can be large or run the other way; tested in A549 cells; further: nearly all actives have a fitted effect of over 35% in size; inactives centre near -10
VACV Venus inh: qHTS for Stage-Specific Inhibitors of Vaccinia Orthopoxvirus: Venus Reporter Primary qHTS; Vaccinia virus Venus reporter expression, fluorescence; Potency, µM (highest dose often 36.5 µM), without a hit: at the highest dose activity change, negative = inhibition, usual class: inhibitors; 0.46% of 330,000 active; AID 720580, 2013; active means well fitted inhibition curve with a large enough effect; inconclusive means small, poorly fitted or top-dose-only effect; inactive means no such curve, though single readings can be large or run the other way; tested in A549 cells; further: nearly all actives have a fitted effect of over 30% in size; inactives centre near -10
Numbers without * were called inactive; i = inactive; ? = inconclusive; . = not tested or not shown; & = joins results of further samples; [ ] = remark or other dose. On the % scale 0 is the no-effect control and ±100 the full control effect; potency means the concentration at half of the fitted maximal effect.

SMILES	Vaccinia mCherry	VACV Venus inh
CCOC(=O)C(NC(=O)c1ccc(F)cc1)(Nc1nnc(C)s1)C(F)(F)F (centres undefined)	-12%	-12%
COc1ccccc1N1CCN(C(=O)c2cn(C)c3ccc(S(=O)(=O)N4CCOCC4)cc3c2=O)CC1	-19%&-8%	0%&5%
COc1cc(CN2CCCC(C(=O)c3sccc3C)C2)cc(Cl)c1O (centres undefined)	-4%	-10%
Cn1nc(-c2ccccc2)c(CSc2ccccc2)c1Cl	.	-26%
O=C(CSc1n[nH]c(-c2ccncc2)n1)Nc1ccc(Cl)cc1	i	-19%
CSc1ccc(Cn2c(C)c(C(=O)NCc3cccs3)sc2=O)cc1	-2%	-9%
COc1ccc(C(=O)CSc2nnc(CCc3ccccc3)n2-c2ccccc2)cc1	-20%	-14%
CC1(c2nnnn2Cc2ccccc2)CCC(=O)N1C1CC1 (centres undefined)	-12%	-4%
Cc1ccc2cc(C#N)c(NCCNC(=S)NCCCN(C)C)nc2c1C	?	13µM*
CC(C)OCC(O)CN1CCNCC1 (centres undefined)	-6%	-5%
COc1cccc(CNC(=O)CCC2CCCN(C(=O)c3ccc(C)nc3)C2)c1 (centres undefined)	i	-19%
OCCNCCSc1ccc(Cl)cc1	i	-11%
Cc1cccc(N/C=C(\[N+](=O)[O-])S(=O)(=O)c2ccccc2)c1C	i	-8%
O=C(NC1CCCC1)C1c2ccccc2OCC(=O)N1Cc1ccccc1 (centres undefined)	42%[activator]	0%
COc1ccc2nc(/C(C#N)=C\c3ccc(Oc4ccc([N+](=O)[O-])cn4)cc3)[nH]c2c1	i	2%
O=C(O)C1CCCN(S(=O)(=O)c2ccc3c(c2)OCCO3)C1 (centres undefined)	i	-2%
COc1cc(Cl)c(C)cc1Nc1nc2ccccc2nc1NS(=O)(=O)c1ccccc1	0%	26%
O=C1S/C(=C\c2ccc(Cl)cc2)C(=O)N1CCn1cnnn1	-12%	-15%
CCN(C(=O)COC(=O)c1[nH]c(C)c(C(C)=O)c1C)C1CCS(=O)(=O)C1 (centres undefined)	-9%	-5%
CC(=O)[C@@]1(O)CC[C@H]2[C@@H]3CCC4=CC(=O)CC[C@]4(C)[C@H]3CC[C@@]21C	i	-15%
Cc1cccc(C)c1NC(=O)c1cc(S(=O)(=O)N2CCOCC2)ccc1F	i	-8%
O=C(NNC(=O)c1ccccc1[N+](=O)[O-])Nc1ccccc1C(F)(F)F	i	-11%
O=C(c1ccoc1)N1CCCC(N2CCN(c3cccc(Cl)c3)CC2)C1 (centres undefined)	-3%	-18%
CN(C)/C=C/C(=O)c1ccc(Br)s1	i	4%
COc1ccc(CN(CC(=O)NCC2CCCO2)C(=O)CCC(=O)Nc2nccs2)cc1 (centres undefined)	i	-11%

In the list so far, these contain an aryl thioether with sulfur outside any ring:
SMILES	Vaccinia mCherry	VACV Venus inh
Cn1nc(-c2ccccc2)c(CSc2ccccc2)c1Cl	.	-26%
O=C(CSc1n[nH]c(-c2ccncc2)n1)Nc1ccc(Cl)cc1	i	-19%
CSc1ccc(Cn2c(C)c(C(=O)NCc3cccs3)sc2=O)cc1	-2%	-9%
COc1ccc(C(=O)CSc2nnc(CCc3ccccc3)n2-c2ccccc2)cc1	-20%	-14%
OCCNCCSc1ccc(Cl)cc1	i	-11%

Quoted from the listing:
Reading of CCN(C(=O)COC(=O)c1[nH]c(C)c(C(C)=O)c1C)C1CCS(=O)(=O)C1 (centres undefined) under VACV Venus inh: -5%
Reading of COc1ccc2nc(/C(C#N)=C\c3ccc(Oc4ccc([N+](=O)[O-])cn4)cc3)[nH]c2c1 under VACV Venus inh: 2%
Reading of Cn1nc(-c2ccccc2)c(CSc2ccccc2)c1Cl under VACV Venus inh: -26%
Reading of COc1ccc(C(=O)CSc2nnc(CCc3ccccc3)n2-c2ccccc2)cc1 under VACV Venus inh: -14%
Reading of CSc1ccc(Cn2c(C)c(C(=O)NCc3cccs3)sc2=O)cc1 under VACV Venus inh: -9%

(further entries)
SMILES	Vaccinia mCherry	VACV Venus inh
COc1cc(NC(=O)CNS(=O)(=O)c2cccs2)cc(OC)c1OC	4%	4%
Cc1ccc(C)c(CN2C(=O)c3ccccc3S(=O)(=O)c3ccc(C(=O)N4CCN(c5ccccc5F)CC4)cc32)c1	-6%	-4%
CCCCNc1nc2sc3c(c2c(=O)n1-c1cccc(Cl)c1)CCN(C)C3	-2%	-17%
Cc1ccccc1OCCNC(=O)c1ccccc1Sc1ccccc1C#N	.	-18%
COc1ccc(NC(=O)c2c(C)oc3ccc(O)c(CN4CCC(C)CC4)c23)cc1	-18%	-9%
O=C(OCC1COc2ccccc2O1)c1ccccc1F (centres undefined)	-20%	-3%
CC(C)c1nc2sc(C(=O)O)c(N)c2c2c1CCCC2	-10%	8%
CCc1cc2c3c(c1)C1(C(=O)N3C(C)(C)CC2C)C(C#N)=C(N)N2C(=C1C#N)Nc1ccccc12 (centres undefined)	?	-30%
Cc1ccccc1S(=O)(=O)NC1OC(=O)C(Oc2ccccc2)=C1Br (centres undefined)	-8%	-9%
Cc1cccc(C)c1NC(=O)C(C1CC1)n1c(-c2ccc(-c3ccccc3)cc2)nc2ccccc21 (centres undefined)	-9%	-9%
Cc1c(Cl)cccc1N1CC(c2nc3ccccc3n2Cc2ccccc2F)CC1=O (centres undefined)	-10%	-8%
Nc1[nH]c(C(=O)c2ccccc2)c(-c2ccccc2C(F)(F)F)c1C(=O)NCCc1cccs1	-13%	2%
O=C(NC1CCCCC1)C(c1ccccc1)N(Cc1ccco1)C(=O)c1csnn1 (centres undefined)	-13%	-3%
COc1cc(CCC(=O)Nc2c(C(=O)N3CCN(c4ccccc4)CC3)oc3ccccc23)on1	-3%	-17%
CCOC(=O)CSc1nc2cccnc2n1C	-23%	0%
CCOC(=O)N1CCN(C(=O)CSc2nc3c(cnn3-c3ccccc3)c(=O)[nH]2)CC1	-13%	-4%
CCCN(C(=O)Cc1nc(N)n[nH]1)C1(C(=O)Nc2ccccc2C)CCCCC1	.	-6%
COc1cc2c(NC3CCN(C)CC3)nc(N3CCCCC3)nc2cc1OCCCN(C)C	?	10µM*
Cc1ccc2c(cnn2C(=O)CCC(=O)NCc2cccc(Br)c2)c1	-5%	-20%
C[C@@H]1CN([C@@H](C)CO)C(=O)c2cc(NS(=O)(=O)c3ccc(F)cc3)ccc2O[C@@H](C)CCCCO[C@H]1CN(C)C(=O)NC1CCCCC1	-15%	?
C=C1CC[C@@H]2[C@](C)(CO)[C@H](O)CC[C@@]2(C)[C@@H]1C/C=C1/C(=O)OCC1O (some centres undefined)	-20%	-25%
Cc1ccc(C)c(N2CCN(C(=O)CCS(=O)(=O)c3ccc4c(c3)CC(=O)N4C)CC2)c1	-12%	-12%
CCOC(=O)c1csc(NC(=O)CCS(=O)(=O)c2ccc(Cl)cc2)n1	?	?
COc1ccc(C2CCCN2C(=O)Nc2ccc(Cl)cc2)cc1OC (centres undefined)	i	-21%
CC(C)Oc1ccc(NC(=O)Oc2ccccc2)cc1	-11%	2%

Compounds above that contain fluorine, in the order listed:
SMILES	Vaccinia mCherry	VACV Venus inh
CCOC(=O)C(NC(=O)c1ccc(F)cc1)(Nc1nnc(C)s1)C(F)(F)F (centres undefined)	-12%	-12%
Cc1cccc(C)c1NC(=O)c1cc(S(=O)(=O)N2CCOCC2)ccc1F	i	-8%
O=C(NNC(=O)c1ccccc1[N+](=O)[O-])Nc1ccccc1C(F)(F)F	i	-11%
Cc1ccc(C)c(CN2C(=O)c3ccccc3S(=O)(=O)c3ccc(C(=O)N4CCN(c5ccccc5F)CC4)cc32)c1	-6%	-4%
O=C(OCC1COc2ccccc2O1)c1ccccc1F (centres undefined)	-20%	-3%
Cc1c(Cl)cccc1N1CC(c2nc3ccccc3n2Cc2ccccc2F)CC1=O (centres undefined)	-10%	-8%
Nc1[nH]c(C(=O)c2ccccc2)c(-c2ccccc2C(F)(F)F)c1C(=O)NCCc1cccs1	-13%	2%
C[C@@H]1CN([C@@H](C)CO)C(=O)c2cc(NS(=O)(=O)c3ccc(F)cc3)ccc2O[C@@H](C)CCCCO[C@H]1CN(C)C(=O)NC1CCCCC1	-15%	?

The listing picks up, starting 2 compounds before the break.
SMILES	Vaccinia mCherry	VACV Venus inh
COc1ccc(C2CCCN2C(=O)Nc2ccc(Cl)cc2)cc1OC (centres undefined)	i	-21%
CC(C)Oc1ccc(NC(=O)Oc2ccccc2)cc1	-11%	2%
COc1cc(C(CC(=O)NCCC(C)C)N2Cc3ccccc3C2=O)cc(OC)c1OC (centres undefined)	-5%	1%
CC(C)CNc1ncnc2c1ncn2[C@H]1CN(Cc2ccco2)C[C@@H](CO)O1	8%	-3%
CCOc1ccc(C(=O)COC(=O)C2COc3ccccc3O2)cc1 (centres undefined)	i	-4%
Cc1ccc(N(CC(=O)NC2CCCCC2)C(=O)CCC(=O)Nc2nccs2)cc1	-18%	-2%
Cc1ccc(S(=O)(=O)N/N=C/c2ccc(OS(=O)(=O)c3ccc(C)c([N+](=O)[O-])c3)cc2)cc1	.	-25%
CCC1C(=O)NCCN1Cc1ccc2c(c1)CN(Cc1cc(OC)ccc1OC)CCO2 (centres undefined)	0%	19%
CN(C)CCN(C(=O)c1ccc(S(=O)(=O)N2CCc3ccccc32)cc1)c1nc2ccc(F)cc2s1	-15%	-20%
Cc1ccc(N2CCN(S(=O)(=O)c3ccc(Cl)s3)CC2C)cc1 (centres undefined)	-23%	-17%
COc1ccc(CCn2c(SCCN3CCCCC3)nc3ccccc3c2=O)cc1OC	-7%	-13%
Cc1cccc(-c2nnc(SCC#N)n2-c2cccc(Cl)c2)c1	-32%	-21%
CCOC(=O)C1=CCN(S(=O)(=O)c2ccc(C)cc2)C1c1ccccc1 (centres undefined)	35%[activator]	-8%
COc1ccc(CNC(=O)C23CN(Cc4ccccc4)CC2C(c2ccc([N+](=O)[O-])cc2)=NO3)cc1 (centres undefined)	-16%	-4%

Screening data (PubChem BioAssay)

This is a random part of the collection (roughly 0.87% active in at least one column).
